From PubChem
N370S GC mod: inhibitors or activators of N370S glucocerebrosidase for Gaucher disease. P04062. N370S GC spleen homogenate, 4MU-glucoside fluorescence. Potency, µM (doses to about 59.4 µM), for inactives: at the highest dose activity change, negative = inhibition, usual class: inhibitors. 330,000 tested, 0.092% active. AID 2101;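 also: 0% = full enzyme activity and -100% = no enzyme basal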
KAT2A inh: GCN5L2 (KAT2A) acetyltransferase inhibition. Q92830. GCN5L2 HAT assay, ThioGlo1 CoA-SH fluorescence. Potency, µM (doses to about 58.9 µM), for inactives: top-dose activity change, negative = inhibition, usual class: inhibitors. 390,000 tested, 0.21% active. AID 504327
Target sequence (Q92830 whole entry, looked up): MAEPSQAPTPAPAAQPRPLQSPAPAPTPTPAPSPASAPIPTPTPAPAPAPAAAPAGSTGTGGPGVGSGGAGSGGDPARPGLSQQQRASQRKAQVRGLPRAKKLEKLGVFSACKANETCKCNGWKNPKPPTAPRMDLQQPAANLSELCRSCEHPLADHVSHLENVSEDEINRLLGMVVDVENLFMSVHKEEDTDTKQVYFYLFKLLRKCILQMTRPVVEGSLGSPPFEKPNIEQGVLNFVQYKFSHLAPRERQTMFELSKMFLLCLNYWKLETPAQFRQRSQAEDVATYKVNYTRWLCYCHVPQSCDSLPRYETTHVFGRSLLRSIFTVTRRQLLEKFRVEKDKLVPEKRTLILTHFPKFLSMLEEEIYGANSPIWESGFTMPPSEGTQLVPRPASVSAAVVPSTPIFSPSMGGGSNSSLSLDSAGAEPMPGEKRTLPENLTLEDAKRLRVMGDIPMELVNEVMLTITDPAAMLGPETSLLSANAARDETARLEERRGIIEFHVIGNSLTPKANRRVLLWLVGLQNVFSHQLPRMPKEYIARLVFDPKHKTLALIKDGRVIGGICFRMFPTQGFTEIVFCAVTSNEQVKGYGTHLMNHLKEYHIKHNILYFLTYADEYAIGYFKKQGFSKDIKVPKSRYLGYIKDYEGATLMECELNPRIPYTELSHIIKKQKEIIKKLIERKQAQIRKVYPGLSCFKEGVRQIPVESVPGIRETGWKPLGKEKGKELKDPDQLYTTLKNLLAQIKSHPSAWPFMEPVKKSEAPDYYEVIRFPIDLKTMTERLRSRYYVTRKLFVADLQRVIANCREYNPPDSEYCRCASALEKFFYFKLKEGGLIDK
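qHTS, 1536-well. 20nM enzyme, pH 7.5 HEPES/EDTA/Tween-20 buffer; 15 min compound preinc., RT. Start: 75uM H3(1-25), 70uM AcCoA, 50uM ThioGlo1. Read Ex340/Em540 at t=0 (autofluorescence flag) and t=20 min.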
* hit, by the source's call; ? = inconclusive; . = not tested or not shown; [ ] = dose if it differs, or a comment. Calls follow the shape of the dose curve; as a rule, active = well fitted curve in the direction sought with a large enough effect; inconclusive = small, poorly fitted or top-dose-only effect, or another doubt; inactive = no such curve, though single readings can be large; an effect the other way counts as inactive or inconclusive. Unless noted, % is scaled to controls: 0 for no effect and ±100 for the full control effect; potency is read from the fitted curve at half-maximal effect. Some of the compounds tested, and most or all hits are left out here.

Second line of a record – N370S GC mod	KAT2A inh
> Cc1[nH]c(=O)[nH]c(=O)c1S(=O)(=O)N1CCCC(C(=O)NCCc2ccc(Cl)cc2)C1 (stereo not given)
→ 0%	?
> CCC(C)[C@H](NC(=O)OC(C)(C)C)C(=O)NCC1CCC(C(=O)N[C@@H](Cc2ccccc2)C(=O)O)CC1 (stereo not given in full)
→ 2%	-3%
> CC[C@]12c3[nH]c4ccc(Cl)cc4c3CCN1C(=O)[C@@H](CC(=O)NCCc1ccccn1)C[C@@H]2C(=O)N1CCN(C(=O)c2ccco2)CC1
→ .	1%
> CCc1c(C)nc2ncnn2c1N1CCC(C(=O)Nc2cccc(C(C)=O)c2)CC1
→ 1%	-3%
> COc1ccc(NC2c3ncccc3C(=O)N2Cc2cccs2)cc1 (stereo not given)
→ 3%	10%
> CC(=O)Nc1cccc(S(C)(=O)=O)c1
→ 12%	1%
> CC(=O)Nc1ccc(NC(=O)COc2cc(O)c3c(c2)OC(C)(C)CC3=O)cc1
→ 0%	?
> Cc1cccc(NC(=O)C23CCC(C)(C(=O)O2)C3(C)C)c1 (stereo not given)
→ -1%	-17%
> Cc1nc2c(n1O)CCC/C2=N\O
→ 24%	1%
> O=c1c(Cl)c(Cl)cnn1-c1ccccc1
→ -3%	16%
> CCN1C(=O)[C@H]2[C@@H](c3ccc(C)cc3)N3C(=O)N(c4ccccc4)C(=O)[C@@]3(C)[C@H]2C1=O
→ -5%	-8%
> Cc1n[nH]c(=O)n1-c1ccc(OC(F)(F)F)cc1
→ 5%	-2%
> COc1cc(/C=C/C(=O)NCc2ccccn2)cc(OC)c1OC
→ 18%	-4%
> CCS(=O)(=O)N1CCN(C(=O)CC(C)C)CC1
→ 1%	0%
> CCc1cc(-c2n[nH]c(C)c2-c2nc(C)cs2)c(O)cc1OC
→ -10%	-10%
> CCC(C(=O)N1CCN(Cc2ccc3c(c2)OCO3)CC1)n1c(=O)[nH]c2ccccc2c1=O (stereo not given)
→ -5%	-4%
> CCOC(=O)c1c(C)c(C(=O)NCc2cccs2)c(C)n1CC
→ -15%	-5%
> O=C(NCc1n[nH]c(=S)n1-c1ccc(Cl)c(Cl)c1)c1ccc(S(=O)(=O)N2CCOCC2)cc1
→ -9%	-12%
> Cc1ccccc1NC(=O)Cc1nc(COC(=O)c2cccc(C)c2O)cs1
→ 23%	2%
> CCN(c1ccc(OC)cc1)S(=O)(=O)N1CCCC(C(=O)NCc2ccccc2Br)C1 (stereo not given)
→ 0%	1%
> CC(=O)N/C(=C\c1ccccc1)C(=O)OCC(=O)c1c(N)n(CC(C)C)c(=O)n(C)c1=O
→ 3%	-1%
> COc1ccc(CCNC(=O)CN2c3cccc4cccc(c34)S2(=O)=O)cc1OC
→ 3%	-17%
> CC(C)c1nnc(NC(=O)C2CC(=O)N(CCc3ccc(F)cc3)C2)s1 (stereo not given)
→ -1%	2%
> CC(C)CCNC(=O)CCS(=O)(=O)c1cccc2nonc12
→ 1%	-2%
> CCCCc1cc(=O)oc2cc(C)cc(OCC(=O)N3CCC(C(=O)O)CC3)c12
→ 4%	-2%
> O=C(c1ccc(NS(=O)(=O)c2ccccc2)cc1)N1CCOCC1
→ 1%	-3%
> O=C(CSCCO)Nc1ccccc1
→ 12%	.
> Cc1ccc(C(=O)Oc2cc(C)[nH]c(=O)c2[N+](=O)[O-])cc1
→ 11%	-2%
> CC(C)(CO)CNC(=O)CC1C(=O)NCCN1CC(c1ccccc1)c1ccccc1 (stereo not given)
→ -1%	-2%
> COc1ccc(/C=C(\NC(=O)c2ccccc2)C(=O)NCCN2CCOCC2)cc1OC
→ -4%	-8%

Some of the entries so far, in markdown.
| mol | N370S GC mod | KAT2A inh |
| --- | --- | --- |
| O=C(NCc1n[nH]c(=S)n1-c1ccc(Cl)c(Cl)c1)c1ccc(S(=O)(=O)N2CCOCC2)cc1 | -9% | -12% |
| Cc1ccccc1NC(=O)Cc1nc(COC(=O)c2cccc(C)c2O)cs1 | 23% | 2% |

Going on with the list:
Second line of a record – N370S GC mod	KAT2A inh
> CCOc1ccccc1N(C(=O)c1snc(C(N)=O)c1N)C(C(=O)NC1CCCC1)c1cccs1 (stereo not given)
→ -4%	-5%
> CCOC(=O)c1ccc(NC(=O)c2ccccc2[N+](=O)[O-])cc1
→ -7%	-9%
> O=c1c(Cc2ccc(F)cc2)c(O)ccn1Cc1ccc(F)cc1
→ 12%	0%
> Cc1cccc(NC(=O)CCn2ccnc2C)c1
→ 0%	-13%
> O=C(COc1ccccc1)NC1CCN(Cc2ccccc2)CC1
→ 2%	-13%
> O=C(c1cc(COc2cccc(C(F)(F)F)c2)on1)N1CCC(Oc2cccnc2)CC1
→ ?	?
> CCS(=O)(=O)c1ccc(O)c(N2C(=O)C3C4C=CC(C4)C3C2=O)c1 (stereo not given)
→ -5%	4%
> O=C(CC1OC(=O)c2ccccc21)Nc1cccc(S(=O)(=O)N2CCCCCC2)c1 (stereo not given)
→ -12%	-26%
> COc1cc2nc(CN3CCN(S(=O)(=O)c4ccc(Cl)cc4)CC3)[nH]c(=O)c2cc1OC
→ -9%	2%
> COc1cccc(CN2C(=O)C3(C(C#N)=C(N)OC4=C3C(=O)CCC4)c3ccccc32)c1 (stereo not given)
→ 1%	-3%
> CCc1c(C)[nH]c2ccc(OC)cc2c1=S
→ -14%	0%
> COc1nc(C)ccc1-c1noc(-c2cccnc2)n1
→ -12%	-2%
> Cc1ccc(NC(=O)NCc2ccc3c(c2)OCO3)cc1C
→ ?	-15%
> Cc1ccc(CCC(=O)Nc2ccc(Br)cc2)o1
→ -3%	3%
> CC(C)CC(NC(=O)C(CC(C)C)NC(=O)OC(C)(C)C)C(N)=O (stereo not given)
→ 1%	-4%
> O=C(/C=C/c1ccco1)NC(=S)Nc1ccc(Cl)cn1
→ -7%	3%
> O=C(CN1CCN(c2ccccc2)CC1)N1CCN(c2ccccc2)CC1
→ -1%	-1%
> CCOc1ccc(NC(=O)c2ccc(CSc3nnc(C)s3)cc2)cc1
→ 13%	2%
> COc1ccccc1NC(=O)C1CC(=O)OC1c1ccccc1 (stereo not given)
→ -3%	-1%
> O=C(O)CSc1nnc(-c2cccs2)n1-c1ccc(Cl)cc1
→ -14%	6%
> Cc1ccc(NC(=S)NC2CCCC2)cc1
→ 17%	0%
> O=C(c1cc(C2CC2)on1)N1CCCC(N2CCN(c3cccc(C(F)(F)F)c3)CC2)C1 (stereo not given)
→ -10%	-13%
> CCCNC(=O)Cn1cnc2sc(C(=O)N3CCN(CCC)CC3)c(C)c2c1=O
→ -9%	-1%
> CCOc1ccc(C(=O)NCC(C)NC(=O)c2ccc(OCC)cc2)cc1 (stereo not given)
→ 1%	-2%
> CC(C)C(OC(=O)c1ccco1)C(=O)NCc1ccccc1 (stereo not given)
→ 4%	0%
> COc1ccc(C(CNC(=O)COc2ccccc2OC)N2CCCCC2)cc1 (stereo not given)
→ -4%	-7%
> COc1cc2cc(CN(CCO)C(=O)c3cccs3)c(=O)[nH]c2cc1OC
→ 0%	-6%
> CC(C)OC(=O)CN1CCN(c2ccc(Cl)cc2)CC1
→ 2%	0%
> Cc1ccc(OCC(=O)OCC(=O)N2c3ccccc3CC2C)cc1C (stereo not given)
→ .	-5%
> Cc1cc(OCC(=O)N(C)C2CCCCC2)ccc1Cl
→ -3%	-8%
> COc1ccc(/C(O)=C2/C(=O)C(=O)N(c3ncccn3)C2c2ccc(OC)c(OC)c2)cc1 (stereo not given)
→ -7%	1%
> O=C(/C=C/c1ccccc1)NC(N1CCOCC1)C(Cl)(Cl)Cl (stereo not given)
→ 5%	-7%
> COc1cc(C)c(CN2CCC(n3nccc3NC(=O)C3CC3)CC2)cc1C
→ -1%	-3%
> CCN(Cc1cccs1)C(=O)c1cccc(S(=O)(=O)N2CCN(C)CC2)c1
→ .	-1%
> Cc1coc(=N)n1CC(=O)c1ccc(Cl)cc1
→ 8%	0%
> COc1ccc(NC(=O)CC2SC(N3CCCCC3)=NC2=O)cc1OC (stereo not given)
→ .	-2%
> Cc1nc(SCC(=O)N2CCOCC2)c2ccsc2n1
→ 4%	0%
> COCCCn1c(SCC(=O)Nc2nnc(C)s2)nnc1-c1ccoc1C
→ 5%	2%
> COc1ccccc1CNC(=O)C(C)NS(=O)(=O)c1ccc(C)cc1 (stereo not given)
→ -1%	0%
> CCOC(=O)c1cc(-c2ccccc2)n(CC(=O)Nc2ccc(OC)cc2)c1C
→ 7%	4%
> COC(=O)c1ccccc1NC(=O)COC(=O)CSCC(=O)N1CCOCC1
→ 2%	-15%
> CN(C)c1cc[n+](CC(=O)Nc2ccc(Cl)c([N+](=O)[O-])c2)cc1
→ -7%	-5%
> CCc1ccc2nc(Nc3nc(COC)cc(=O)[nH]3)nc(C)c2c1
→ 6%	-3%
> Cc1oc2ncnc(N3CCCCC3)c2c1C(=O)N1CCN(c2cccc(Cl)c2)CC1
→ .	-3%
> CCOc1c([N+](=O)[O-])cc2c(C)c(C(=O)N3CCN(C)CC3)oc2c1OCC
→ 1%	-13%
> Cc1cccc(OCC(=O)OCC(=O)Nc2ccc(Cl)cn2)c1
→ .	-7%
> CCN(CC(=O)Nc1cc(C)nn1-c1nc(C)cc(C)n1)Cc1ccccc1
→ 6%	-3%
> Cc1cc(NC(=O)C(C)(C)C)cc(-c2nc3ncccc3o2)c1O
→ .	-2%
> CCOC(=O)N1CCN(C(=O)C2CCCN(c3ncnc4c3nc3n4CCCCC3)C2)CC1 (stereo not given)
→ -9%	-4%
> O=S(=O)(Cc1ccccc1)N1CCN(Cc2c(F)cccc2Cl)CC1
→ 4%	-2%
> Cn1nc(C(F)(F)F)c(C(=O)Nc2ccc(F)cc2)c1Cl
→ -3%	-5%
> NS(=O)(=O)c1ccc(CCNC(=O)c2ccc3c(=O)n4c(nc3c2)CCCCC4)cc1
→ .	2%
> Cc1cc(C)c2c(CN3CCN(Cc4ccc5c(c4)OCO5)CC3)cc(=O)oc2c1C
→ -5%[2.35 µM]	2%
> COC(=O)c1cccc(NC(=O)c2cnoc2C)c1
→ -2%	2%
> Cc1ccc(S(=O)(=O)N2CCN(c3nn(C)c(=O)n(C)c3=O)CC2)cc1C
→ .	0%
> Cc1ccc(-c2cc(C(=O)N/N=C/c3c(C)nn(C)c3C)c3ccccc3n2)c(C)c1
→ 6%	1%
> O=[N+]([O-])c1ccc2c(c1)ncn2-c1ccccc1
→ 8%	-3%
> Cc1nc(-c2ccc(S(=O)(=O)Nc3cccc(S(N)(=O)=O)c3)s2)cs1
→ 2%	4%
> O=C(NC1CC1)C1CCN(C(=O)c2ccccc2Cl)CC1
→ -20%	2%
> CN1CCN(S(=O)(=O)c2cc([N+](=O)[O-])ccc2Cl)CC1
→ -25%	-6%

The list continues:
Second line of a record – N370S GC mod	KAT2A inh
> Cc1noc(C)c1COc1cccc(C(=O)Nc2ccc3c(c2)OCO3)c1
→ -9%	-6%
> O=C(COc1ccccc1)Nc1ncc2c(n1)CCCC2=O
→ 4%	-28%
> CCN(CC(=O)Nc1c(F)cccc1F)C(=O)CSC(=S)N1CCCC1
→ .	1%
> Cn1c(=O)c2cc(NCc3ccccc3)nnc2n(C)c1=O
→ 2%	-6%
> COc1ccc(CNC(=O)Cn2nc(C(F)(F)F)c(Br)c2C)cc1
→ -1%	-9%
> Cc1ccccc1N1CCN(C(=O)c2ccccc2NC(=O)C2CC=CCC2C(=O)O)CC1 (stereo not given)
→ -2%	-6%
> O=C(CCc1nnc(-c2ccc3c(c2)OCO3)o1)NC(c1ccccn1)C(F)(F)F (stereo not given)
→ -13%	-1%
> Cc1cc(C)nc(/N=C(/NC(=O)Nc2cccc(Cl)c2)Nc2ccccc2)n1
→ 6%	-9%
> Cc1cccc(C)c1NC(=O)CN(C)CC(=O)Nc1sc2c(c1C(N)=O)CCC2
→ -1%	-1%
> COc1ccc(N=CC2=C(O)c3ccccc3C2=O)cc1
→ 2%	-8%
> COc1ccc(C(=O)OCCN2CCOCC2)cc1
→ -2%	-3%
> O=C(NCc1ccco1)c1cccc(NS(=O)(=O)c2cccc(F)c2)c1
→ -1%	-2%
> O=C(N/N=C/c1ccoc1)c1ccc(Cl)cc1
→ 8%	-9%
> COCCN1CSC(=S)N(Cc2ccco2)C1
→ -13%	-2%
> Cc1ccc(OCCCCNC(C)c2ccccc2)c(C)c1 (stereo not given)
→ -2%	-9%
> CCC1Sc2ccccc2N(CC(=O)NCCC(C)C)C1=O (stereo not given)
→ 5%	30%
> CCC(=O)N1CCN(c2ccc(NC(=O)c3ccc([N+](=O)[O-])o3)cc2)CC1
→ 4%	7%
> Cc1ccc(NC(=O)CSc2nc(O)cc(=O)n2-c2ccc(C)cc2)cc1
→ -27%	-24%
> Cc1ccccc1OCC(=O)N=Nc1c(O)n(C)c2ccccc12
→ 15%	-5%
> Cc1cccc(NC(=O)CSc2nnc(CNC(=O)c3cccs3)o2)c1C
→ -10%	-3%
> COc1ccc(N(CC(=O)NC2CCCC2)C(=O)CCC(=O)Nc2cc(C)on2)cc1OC
→ -7%	-3%

Four of these compounds in a different format.
compound | N370S GC mod | KAT2A inh
COc1ccccc1CNC(=O)C(C)NS(=O)(=O)c1ccc(C)cc1 (stereo not given) | -1% | 0%
CCOC(=O)c1cc(-c2ccccc2)n(CC(=O)Nc2ccc(OC)cc2)c1C | 7% | 4%
COC(=O)c1ccccc1NC(=O)COC(=O)CSCC(=O)N1CCOCC1 | 2% | -15%
CN(C)c1cc[n+](CC(=O)Nc2ccc(Cl)c([N+](=O)[O-])c2)cc1 | -7% | -5%
